Screening data as filed in PubChem BioAssay.
Biofilm kill mix: mixtures killing C. albicans biofilm | C. albicans biofilm persisters + clotrimazole, fluorescence viability; primary screen in compound mixtures of four per well | inhibition, % at 7.6 µM | 0.02% of 120,000 active | AID 1242;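 active = inhibition above 30.3% in the primary screen of four-compound pools, then above 30% when the compound was retested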;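 note: compounds exposed to preformed 24 h biofilms for 48 h; the number belongs to the whole pool; some results filed as inactive read as strong as hits; inactives centre near 12; 0% = biofilm with clotrimazole alone and 100% = kill control; retested singly at about 60 µM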
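Incubation: 24 h biofilm formation, then 48 h compound exposure, 37 °C | Material: C. albicans biofilms | Buffer or medium: RPMI/MOPS medium, pH 7.0 | Measured by: 2-h Alamar Blue fluorescence, 535/590 nm excitation/emission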
The depositor's hits bear a star. This is a subset; rates above refer to the full screens.

compound	Biofilm kill mix
CCc1cccc(C)c1N(C(=O)Cn1c(CO)nc2ccccc21)C(C)COC (stereo unspecified)	11.7
CCOC(=O)c1ccc(NC(=S)N2CCN(CCNC3=CC(=O)CC(C)(C)C3)CC2)cc1	13.3
C/C(=N\NC(=S)NC1CCCCC1)c1ccc(OC(F)F)cc1OC(F)F	21.9
CCOc1ccc(-c2ccc(/C=C3/C(=N)N4C=CSC4=NC3=O)o2)c([N+](=O)[O-])c1	8.5
COc1cccc(-n2c(SCC(=O)NCc3cccs3)nc3ccccc3c2=O)c1	11.6
CC(=O)N1CCC2(CC1)C/C(=N\NC(=S)Nc1ccc(C)cc1)c1cc(O)ccc1O2	8.6
CN1C(=O)CC(c2cn(Cc3ccccc3)c3ccccc23)C1=O (stereo unspecified)	20.6
COCCn1c(-c2ccc(Cl)cc2)nc2c(c(=O)c3ccccc3n2C)c1=O	13.1
CC(=O)N1CCN(c2ccc(NC(=O)c3ccc4c(c3)OCCO4)cc2Cl)CC1	28.7
O=C(COC(=O)c1c(Cl)cccc1Cl)Nc1cc(Cl)ccc1Oc1ccccc1	18.6
Cc1ccc(CNC(=O)Cc2noc3ccccc23)cc1	12.6
NS(=O)(=O)c1ccc(CNC(=O)/C=C/c2ccco2)cc1	17.6
COCCNC(=S)N(Cc1cc2cc(C)ccc2n2nnnc12)C1CCCC1	-7.5
CCCCN(C)C(=O)Cn1c(=O)oc2cc(S(=O)(=O)N3CC(C)CC(C)C3)ccc21 (stereo unspecified)	28.8
CC(C)Oc1ccc(C(CC(=O)O)n2cnnn2)cc1 (stereo unspecified)	10.2
Cc1cccc(C)c1N(Cc1ccccc1F)S(C)(=O)=O	14.2
O=C(Nc1ccccc1Cl)Nc1ccccc1Cl	24.3
Nc1nc(-c2ccccc2)c(-c2ccc([N+](=O)[O-])cc2)s1	5.7
O=C(CSc1ncnc2c1nnn2Cc1ccc(F)cc1)NC1CCCC1	-0.5
CCOc1cc(/C=N\NC(=O)CN2CCOCC2)ccc1OCc1ccc(F)cc1	20.9
CC(C)(C)NC(=O)c1ccccc1NC(=O)C1CCCO1 (stereo unspecified)	28.3
CCOC(=O)C1CCCN(C(=O)c2ccc(Cn3c(=S)[nH]c4cc(C(=O)OC)ccc4c3=O)cc2)C1 (stereo unspecified)	11.9
O=C(NC(=S)NCCSc1ccccc1)c1cccnc1	-10.9
COc1ccc(NS(=O)(=O)c2cccc(NC(=O)c3ccc(S(=O)(=O)N4CCCCCC4)cc3)c2)cc1	7.4
Cc1ccccc1SCC(=O)Nc1cc(S(=O)(=O)N2CCOCC2)ccc1N1CCOCC1	3.4
COc1cccc(-c2cc(=O)[nH][nH]2)c1	15.3
CCC/C(=N\NC(=O)c1ccc(OC)c(OC)c1)c1ccccc1	12.0
CN(CC(=O)Nc1ccc(S(=O)(=O)N2CCCC2)cc1)CC(=O)Nc1cccc(F)c1	5.2
O=C(Nc1ccc(Cl)cc1C(=O)NCC1CCCO1)c1ccc(Cl)cc1Cl (stereo unspecified)	19.2
CCc1ccc2nc(SCC(=O)NCC3CCCO3)c(C#N)cc2c1 (stereo unspecified)	7.0
Cc1occc1C(=O)Nc1cccc([N+](=O)[O-])c1C	3.2
COc1cccc(NC(=S)NCc2ccc3c(c2)cc(C)n3C)c1	1.7
COc1ccccc1NC(=S)N(c1ccccc1)C(C)C	17.0
COc1ccc([C@@H](C)NC(=O)CCc2nnc(-c3cc(C)on3)o2)cc1	7.4
O=C(C1=C[C@@H](c2ccccc2)C[C@@H](OCc2ccc(CO)cc2)O1)N1CCCCCCC1	1.8
Cc1ccc(-n2cc(CN3CCCN(C=O)CC3)c(-c3ccc(F)cc3)n2)cc1	20.4
COc1ccccc1N1CCN(C(=O)CN(C2CCCCC2)S(C)(=O)=O)CC1	2.9
CCc1cc(=O)[nH]c(SCCC(F)=C(F)F)n1	18.0
COc1ccc(CC(=O)N/N=C/c2c(C)n(C)c3ccccc23)cc1OC	25.4
CCOC(=O)Nc1cccc(NC(=O)c2ccccc2F)c1	11.6
O=C(NCC1CCCO1)c1ccc2c(=O)n(-c3ccc(F)cc3)c(=S)[nH]c2c1 (stereo unspecified)	17.5
O=C(CNc1c(Br)cc(Br)cc1Br)NN=C1CCCCC1	10.2
CCN(CC)C(=O)Oc1nnc(SC(C)C)n1-c1ccc(Cl)cc1	13.2
CCO[C@@H]1OC(C(=O)N2CCN(Cc3ccccc3)CC2)=C[C@H](c2ccccc2)[C@H]1CCCO	21.6
CCCNS(=O)(=O)c1ccc(CCC(=O)NCCc2ccc(OC)c(OC)c2)cc1	18.4
CC(=O)c1ccc(NC(=O)c2noc3c2CCC3)cc1	21.2
CC(=O)Nc1ccc(S(=O)(=O)Nc2nc3ccccc3nc2-n2ccc(=NC(=O)c3ccc(F)cc3)cc2)cc1	17.2
S=C(Nc1ccccc1Cl)N1CCOCC1	12.3
Cc1ccc(NC(=O)CSc2nnc3n2CCCCC3)cc1	21.4
Cc1ccsc1/C=N/NC(=O)C1CC(=O)N(c2ccc(F)cc2)C1 (stereo unspecified)	21.7

Continued.
compound	Biofilm kill mix
Cc1cccc(C(=O)OCC(=O)NCC(C)C)c1O	2.5
CCN1CCN(C(CC(C)C)c2nnnn2CS(=O)(=O)c2ccc(C)cc2)CC1 (stereo unspecified)	22.6
CCOc1cc(N2CCOCC2)c(OCC)cc1NC(=O)CN1C(=O)NC(C)(C2CC2)C1=O (stereo unspecified)	5.7
CN(C)c1ccc(CC2C(=O)Nc3ccccc32)cc1 (stereo unspecified)	3.8
CC(/C=C/C=C/c1ccccc1)=N\NC(=O)c1cccnc1	11.3
CC(=O)Oc1c(/C=C(\C#N)C(N)=O)[nH]c2ccccc12	5.4
Cc1ccc(S(=O)(=O)N2CCN(C(=O)CSc3nncs3)CC2)cc1	20.3
COCc1c(C)cc(C)c(/C=N/O)c1C	12.9
CC1(OC(=O)C2CCCC2)C(=O)C=C2C=C(c3ccsc3)N(CCc3c[nH]c4ccccc34)C=C2C1=O (stereo unspecified)	18.7
CN(C)CCC1c2ccc(Cl)cc2CCc2cccnc21 (stereo unspecified) (tested in a mixture with another compound)	11.0
CC(C)(C)NC(=O)CSc1nnc(-c2ccccn2)n1Cc1ccccc1	23.4
COc1cc(/C=N\NC(=O)CC(=O)NCCc2ccccc2)ccc1O	18.5
CC1CCCN(c2nc(-c3cccnc3)nc3scc(-c4ccccc4)c23)C1 (stereo unspecified)	11.2
O=C(Cn1cncn1)N/N=C/c1ccc(Cl)cc1	8.8
Cc1[nH]nc2c1C(CC(C)C)C(C#N)=C(N)O2 (stereo unspecified)	-6.1
COc1ccc(-c2csc(Nc3ccccc3)n2)cc1	8.6
CN(C)C(=S)Nn1c(-c2ccccc2)nc2ccccc2c1=O	10.9
COc1ccc(C)cc1NC(=O)CCS(=O)(=O)c1ccc2c(c1)CCN2C(C)=O	23.5
O=C(CSc1n[nH]c(-c2ccccc2)n1)Nc1ccc(N2CCOCC2)cc1	15.4
C=CCn1c(-c2csc(-c3ccc(OC)c(OC)c3)n2)n[nH]c1=S	25.9
Cn1c(=O)[nH]c(=O)c2c1nc(N1CCCCCC1)n2CCCSc1nnnn1-c1ccccc1	14.2
C#CCOc1ccccc1C(N)=O	27.0
C/C(=N\NC(=O)COc1cc(C)cc(C)c1)c1ccc(N2CCOCC2)cc1	21.5
Cc1nnc(SCc2ccccc2Cl)n(N)c1=O	15.8
O=C(CSc1nc2ncc(Cl)cc2[nH]1)c1c[nH]c2ccccc12	16.3
CC[n+]1c(C)cc(C)n1-c1ccccc1	8.2
COC(=O)c1ccccc1NC(=O)c1cnc2sccn2c1=O	9.1
Cc1ccc(C)c(OCc2n[nH]c(=S)o2)c1	17.3
CN(Cc1ccccc1)C(=C(Cl)Cl)C(=C1NCCN1)[N+](=O)[O-]	11.3
Cn1cccc1/C=N/NC(=O)C(O)c1ccccc1 (stereo unspecified)	7.0
Cn1c(=O)n(Cc2ccco2)c(=N)c2c3c(sc21)CCCC3	11.7
CCc1cc2c(=O)c(-c3ccc4c(c3)OCCO4)c(C)oc2cc1OS(C)(=O)=O	9.1
COc1ccc(N(Cc2cc3ccccc3[nH]c2=O)S(=O)(=O)c2ccccc2)cc1	14.7
Cc1ccc2c(=O)oc(N(C)C)nc2c1	0.6
O=C(Nc1ccc(-c2nc3ccccc3[nH]2)cc1)c1c(F)c(F)c(F)c(F)c1F	13.2
CCCNC(=O)Cc1c(OC)ccc2cc(Br)ccc12	9.3
CC(=O)C1=C(C)NC(SCC(=O)c2ccc(F)cc2)=C(C#N)C1CC(C)C (stereo unspecified)	9.5
CC(C)=C1SC(N2CCN(c3ccc(C)c(Cl)c3)CC2)=NC1=O	26.5
O=C(COC(=O)CCSc1ccccc1)NCc1ccccc1	10.7
COc1ccc(Br)cc1/C=N/NC(=O)c1ccc(OC)c(OC)c1	17.0
Cn1cc2ccc(N)cc2n1	4.9
O=c1c2ccccc2[nH]c(=S)n1Cc1cccnc1	9.5
CCOC(=O)C1CCN(C(=O)c2ccccc2NC(=O)c2ccc(Br)cc2)CC1	10.8
Cc1ccc(NC2c3ncccc3C(=O)N2Cc2ccco2)c(C)c1 (stereo unspecified)	9.1
CCOC(=O)c1cc2c(=O)n3ccccc3nc2n(C(C)C)c1=NC(=O)c1c(-c2ccccc2Cl)noc1C	16.3
CCCCCCN(C(=O)CCCCCN1C(=O)NC(c2ccc(-c3ccccc3)cc2)C(C(=O)OCc2ccccc2)=C1C)C(C(=O)NCCCC)c1ccc(O)cc1 (stereo unspecified)	-0.9
O=C(c1cc2nc(-c3ccc(Cl)cc3)cc(C(F)(F)F)n2n1)N1CCOCC1	27.6
COc1cc2c(cc1OC)CN(c1nc(-c3cccnc3)nc3ccccc13)CC2	15.9
CCCCCOc1ccc(C(=O)OCC(=O)Nc2cc(C)c(C)cc2[N+](=O)[O-])cc1	12.5
COc1ccccc1C(=O)Nc1ccc2nc(SCC(=O)N(C)C)sc2c1	7.2

The results go on:
compound	Biofilm kill mix
CCOc1ccc(NC(=O)CN2C(=O)NC(CCSC)C2=O)cc1 (stereo unspecified)	15.1
COc1cccc(C(C(=O)NCc2ccco2)N(Cc2ccco2)C(=O)Cn2nnc3ccccc32)c1 (stereo unspecified)	-3.6
O=C(Nc1ccc(Br)cc1F)c1cccnc1	8.2
O=C(CSc1ccc(-c2ccco2)nn1)c1ccccc1	8.2
O=C(NCc1nc(-c2ccccc2)no1)Nc1ccc(F)cc1	-31.1
O=C(O)c1ccccc1Nc1ccc([N+](=O)[O-])cc1C(=O)O	4.6
O=C(Nc1nnc(Cc2ccc(Cl)cc2)s1)c1ccncc1	24.5
Nc1ccc(NC(=O)NC2CCCCC2)cc1[N+](=O)[O-]	22.8
Oc1ccc(/C=C/c2cnccn2)cc1	13.7
COc1ccc(C(C(=O)NC2CCCC2)N(C(=O)c2ccoc2C)c2ccccc2)cc1 (stereo unspecified)	14.8
CCCCC1=CC2=CC(=O)C(C)(OC(=O)CC)C(=O)C2=CN1CCc1ccccn1 (stereo unspecified)	9.4
CCOc1ccc(OCc2ccc(C(=O)N3CCOCC3)cc2)cc1	13.8
CC(=O)c1ccc(NC(=O)COC(=O)c2nc(Cl)ccc2Cl)cc1	14.2
COc1ccc(Cc2nnc(NC(=O)CSc3ccc(Cl)cc3)s2)cc1OC	10.8
CCCc1c(C(=O)Nc2cc(C(C)(C)C)on2)cnn1-c1ccccc1	12.1
COc1cc(/C=C(\C#N)C(=O)NCC2CCCO2)ccc1O (stereo unspecified)	18.1
COc1ccc(C2c3c(noc3C)CC(C)(O)C2C(C)=O)cc1 (stereo unspecified)	30.6
COC(=O)Cn1c2ccccc2c2nc(=O)cc(C)n21	8.1
CC(C)CCC1(CCNC(C)c2cccs2)CCOC(C)(C)C1 (stereo unspecified)	8.4
CC1(C)CC(=O)/C(=C(\O)CCCN2C(=O)c3ccccc3C2=O)C(=NCC(=O)O)C1	8.9
CNC(=O)COC(=O)c1cc2c(s1)CCCC2	12.8
Cc1cccc(C)c1-n1c(C)cc(/C=N/NC(=O)CSc2ncccn2)c1C	11.2
CCCCCCCC1(C)NC(=O)NC1=O (stereo unspecified)	14.2
CCOC(=O)C1CCCN(C(=O)c2csc(-c3ccc4c(c3)CCO4)n2)C1 (stereo unspecified)	17.0
OCC1(Cc2ccccc2)CCCN(Cc2ccn[nH]2)C1 (stereo unspecified)	9.2
COc1ccccc1CNC(=O)c1cc(-c2cccnc2)nc2ccccc12	5.5
O=C(c1cccnc1Nc1ccccc1F)N1CCOCC1	18.3
CCCC(=O)Nc1ccc(C(=O)NN=C(C2CC2)C2CC2)cc1	11.0
O=C(NCCn1cc(SCc2ccccc2F)c2ccccc21)c1c(F)cccc1F	5.5

Random excerpt: 2 entries already listed
compound	Biofilm kill mix
CCCC(=O)Nc1ccc(C(=O)NN=C(C2CC2)C2CC2)cc1	11.0
O=C(c1cccnc1Nc1ccccc1F)N1CCOCC1	18.3
